KCNQ2 block: KCNQ2 potassium channel inhibitors, primary screen, cell-based, CHO-K1, FluxOR thallium flux, B-score (AID 2156). Potassium voltage-gated channel subfamily KQT member 2 (Rattus norvegicus), O88943. 20 min; stronger effect = lower value; only compounds with negative scores are shown here; some inactives read as strong as hits. B-score at 10 µM. hit rate 1.1% among 310,000;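 active = fluorescence ratio B-score at most minus 3 library SDs, with starting brightness B-score within 2 library SDs, cut at about -5.5 in these data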
Target sequence (O88943 whole entry, looked up): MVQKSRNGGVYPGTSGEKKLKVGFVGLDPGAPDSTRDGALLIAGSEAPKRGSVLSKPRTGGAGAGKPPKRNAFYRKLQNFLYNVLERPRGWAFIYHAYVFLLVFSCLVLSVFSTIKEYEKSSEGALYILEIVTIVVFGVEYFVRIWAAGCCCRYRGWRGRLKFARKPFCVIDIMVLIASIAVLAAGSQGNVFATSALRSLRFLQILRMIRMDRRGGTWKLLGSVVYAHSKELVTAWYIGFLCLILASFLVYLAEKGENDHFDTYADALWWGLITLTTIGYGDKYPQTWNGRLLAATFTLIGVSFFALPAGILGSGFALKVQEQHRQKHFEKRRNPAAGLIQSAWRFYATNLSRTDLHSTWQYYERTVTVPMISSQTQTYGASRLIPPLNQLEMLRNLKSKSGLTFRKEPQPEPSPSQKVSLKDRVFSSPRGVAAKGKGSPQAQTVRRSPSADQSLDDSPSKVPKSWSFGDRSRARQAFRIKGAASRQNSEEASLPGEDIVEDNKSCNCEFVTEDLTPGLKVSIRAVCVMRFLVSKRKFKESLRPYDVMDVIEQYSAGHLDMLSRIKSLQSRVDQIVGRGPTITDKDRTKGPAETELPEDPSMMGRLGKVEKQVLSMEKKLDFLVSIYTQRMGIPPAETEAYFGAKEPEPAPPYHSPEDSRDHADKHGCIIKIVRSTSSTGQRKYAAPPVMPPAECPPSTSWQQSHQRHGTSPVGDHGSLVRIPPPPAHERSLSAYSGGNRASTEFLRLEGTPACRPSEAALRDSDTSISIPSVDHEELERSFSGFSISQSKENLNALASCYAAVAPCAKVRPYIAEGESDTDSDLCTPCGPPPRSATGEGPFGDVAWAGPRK
KCNQ2 block baseline: further read-out of KCNQ2 block, marked with its call; B-score; measured here: initial fluorescence intensity artifact check;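 brightness before thallium and not channel activity; 0 = typical well and far values either way flag optical interference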
The depositor's hits bear a star; i = inactive.

KCNQ2 block | KCNQ2 block baseline | smiles
i | 1.04 | O=C1Nc2ccccc2C1(O)Cc1ccncc1 (configuration not stated)
i | -1.86 | CSc1ccccc1NC(=O)CN(C)C(=O)Cc1c[nH]c2ccccc12
i | 0.15 | C/C(=N/OC(=O)c1ccccc1Br)c1ccc(C)cc1
i | -0.54 | CN1CCN(C(=O)Nc2cccc3ccccc23)CC1
i | -2.5 | COCCn1c(SCc2csc(-c3ccccc3)n2)nc2ccccc21
i | -0.45 | COc1ccc(C)cc1S(=O)(=O)N1CCC(C(=O)NC2CCCC2)CC1
i | 1.21 | Cc1ccccc1NC(=O)c1ccc(F)c(S(=O)(=O)NCC2CCCO2)c1 (configuration not stated)
i | -0.13 | Cc1nn(-c2ccccc2)c(Cl)c1C(=O)OCC(=O)NCCc1ccccc1
i | -0.28 | Cc1ccc(NC(=S)NNC(=O)CSc2nc3ccccc3c(=O)n2-c2ccc(C)cc2)cc1
i | 0.86 | CCC(CC)C(=O)Nc1cc(C(=O)NCCc2ccccc2)ccc1Cl
i | 0.05 | Cc1ccccc1N(CC(=O)N/N=C/c1ccc(F)cc1)C(=O)c1ccccc1
i | -0.38 | CCN(CC(=O)NC1CCS(=O)(=O)C1)S(=O)(=O)c1ccc(C)cc1C (configuration not stated)
i | -1.4 | COc1ccc(Cn2c(-c3ccc(Cl)cc3)c[n+]3ccccc23)cc1
i | 0.16 | COc1ccc(S(=O)(=O)NCC(c2ccc(C)cc2)N2CCN(C)CC2)cc1 (configuration not stated)
i | 0.08 | Cn1c(-c2ccccc2)c[n+]2c1-c1ccccc1C2
i | 0.09 | O=C(CSc1nnc2ccc(-c3cccnc3)nn12)Nc1ccc(F)cc1F
i | 1.05 | CCOc1ccccc1NC(=O)CSC1=NN2CCCC(=O)N=C2S1
i | -1.28 | CCC(=O)N/N=C(\C)CC(=O)Nc1ccccc1-c1ccccc1
i | -0.8 | COc1ccc(/C=N\NC(=O)c2ccccc2)cc1COc1ccccc1
i | 0.67 | Cc1ccc(NC(=O)c2cccnc2)cc1C
i | -1.39 | COc1cc(OC)cc(N(C(=O)C2COc3ccccc3O2)C(C(=O)NC2CCCCC2)c2ccc(O)cc2)c1 (configuration not stated)
i | 2.75 | O=C(CSc1nc2ccccc2c(=O)n1-c1ccccc1)N1CCc2ccccc21
i | -0.23 | O=S(=O)(c1cccc(NC(=S)Nc2ccc(Br)cc2Cl)c1)N1CCOCC1
i | -0.79 | COc1ccc(-n2nc(C(=O)NCC(=O)N3CCN(c4ccc(F)cc4)CC3)c3ccccc3c2=O)c(OC)c1
i | 3.55 | COc1cc(OC)c(OC)cc1/C=C1\Oc2cc(OCC(=O)N3Cc4ccccc4C[C@H]3C(=O)O)ccc2C1=O
i | -1.04 | CCCCCC(=O)C(=O)c1ccc(O)cc1O
i | 1.62 | COc1ccc(O)c(C(=O)c2cnc3c(c2)c(C)nn3CCO)c1
i | -0.08 | CCOC(=O)CNC(=O)C1c2ccccc2C(=O)N(c2ccc(OC)cc2)C1c1ccc(OC)cc1 (configuration not stated)
i | -0.03 | Cc1ccc(C)c(NC(=O)Cn2ccn(-c3ccc4c(c3)OCO4)c(=O)c2=O)c1
i | -1.02 | Cc1cc2c3c(c1)C1(SCC(=O)N1c1ccc(F)cc1)C(=O)N3C(C)(C)CC2C (configuration not stated)

Structures listed so far with bromine (2):
KCNQ2 block | KCNQ2 block baseline | smiles
i | 0.15 | C/C(=N/OC(=O)c1ccccc1Br)c1ccc(C)cc1
i | -0.23 | O=S(=O)(c1cccc(NC(=S)Nc2ccc(Br)cc2Cl)c1)N1CCOCC1

Further records.
KCNQ2 block | KCNQ2 block baseline | smiles
i | -0.36 | O=S(=O)(c1ccc(F)cc1)N1CCN(CCc2ccccc2)CC1
i | 0.01 | COc1ccc(OC)c(-n2cnc3cc(C(=O)O)ccc32)c1
i | -1.06 | CCOc1cccc(C(=O)N2CCCN(C)CC2)c1
i | -0.01 | Cc1ccccc1Cc1c(C)nc2c(C(=O)NCc3ccco3)cnn2c1C
i | 0.12 | Cc1ccc2nc(NC(=O)c3cc(-c4ccco4)nc4ccccc34)sc2c1
i | -0.43 | O=C(O)c1cccc(-n2nnnc2SCc2ccccn2)c1
i | -0.46 | O=C(NC1CCCCCC1)C1CCN(S(=O)(=O)c2ccccc2)CC1
i | -1.35 | O=C(Cc1ccc(Cl)cc1Cl)NCC1(N2CCOCC2)CCCCC1
i | 0.41 | CC(C)(C)c1ccc(C(=O)NCC2CCCN2S(=O)(=O)c2ccccc2)cc1 (configuration not stated)
i | -0.34 | CSc1ccccc1C(=O)NCC(c1ccco1)N1CCCCC1 (configuration not stated)
i | 0.61 | Cc1cc(C)cc(NC(=O)c2cc(S(=O)(=O)NCc3ccco3)ccc2F)c1
i | 2.85 | Cc1ccc(-c2nc(C(Cl)Cl)c3ccccc3n2)cc1
i | 0.48 | CCN(CC)S(=O)(=O)c1cccc(C(=O)NC(Cc2c[nH]c3ccccc23)c2nnc3n2CCCCC3)c1 (configuration not stated)
i | 1.55 | COc1cc(C(C2=C(O)CC(C)(C)CC2=O)C2C(=O)CC(C)(C)CC2=O)cc(OC)c1OC (configuration not stated)
i | 0.43 | COc1ccc(S(=O)(=O)n2c([N+](=O)[O-])cnc2C)c(C)c1C
i | 0.02 | O=C(CSc1nncn1-c1ccccc1)NC1CCCc2ccccc21 (configuration not stated)
i | -1.94 | COc1ccc(OC)c(NC(=O)CCC(=O)Nc2nnc(C(C)C)s2)c1
i | -0.01 | O=S(=O)(NCCO)c1ccc2c(c1)Cc1cc(S(=O)(=O)NCCO)ccc1-2
i | 0.2 | CCCCn1c(N)c(N(CCOC)C(=O)CSc2n[nH]c(-c3ccc(OC)cc3)n2)c(=O)[nH]c1=O
i | -1.43 | COc1cccc2sc(N(C)c3ccccc3)nc12
i | -1 | O=S(=O)(c1ccc2ccccc2c1)N1CCN(C2Cc3ccccc3C2)CC1
i | 2.41 | COc1cc(C(=O)Nc2cc3c(cc2N2CCCCC2)n(C)c(=O)n3C)cc(OC)c1OC
i | 0.07 | O=C(C1CCCO1)N1CCN(Cc2nc3ccccc3c(=O)[nH]2)CC1 (configuration not stated)
i | 2 | O=C1CCC([N+](=O)[O-])C(c2cc3c(cc2Cl)OCO3)N1 (configuration not stated)
i | 0.01 | O=C1C(Cl)=C(N2CCCCCC2)C(=O)N1c1ccc(Br)cc1
i | -0.49 | COc1cccc(C(C(=O)NCc2ccccc2)N(C(=O)c2csnn2)C2CC2)c1 (configuration not stated)
i | 0.17 | O=C(NNc1cccc(Cl)n1)c1c(Cl)cccc1Cl
i | 1.68 | COc1cccc(OCc2cc(C(=O)N(Cc3nccn3C)C(C)C)no2)c1
i | -0.18 | COc1cc(/C=N/N2CCOCC2)ccc1OC(=O)c1ccco1
i | -1.49 | CC(=O)NC(CCCNC(=S)NC1CCCCC1)C(=O)O (configuration not stated)

Arranged by molecular weight (lowest first): 5 of the compounds above.
KCNQ2 block | KCNQ2 block baseline | smiles
i | 0.01 | COc1ccc(OC)c(-n2cnc3cc(C(=O)O)ccc32)c1
i | 0.17 | O=C(NNc1cccc(Cl)n1)c1c(Cl)cccc1Cl
i | 0.43 | COc1ccc(S(=O)(=O)n2c([N+](=O)[O-])cnc2C)c(C)c1C
i | 0.07 | O=C(C1CCCO1)N1CCN(Cc2nc3ccccc3c(=O)[nH]2)CC1 (configuration not stated)
i | 0.01 | O=C1C(Cl)=C(N2CCCCCC2)C(=O)N1c1ccc(Br)cc1

(list continues)
KCNQ2 block | KCNQ2 block baseline | smiles
i | -1.18 | CC(C)C1C(c2ccccc2)NC(c2ccccc2)CC1(O)c1ccc(F)cc1 (configuration not stated)
i | 0.13 | CCC1CCCCN1C(=O)CSC1=NN2CCCC(=O)N=C2S1 (configuration not stated)
i | -0.86 | CCCS(=O)(=O)c1c(S(=O)(=O)CCC)c2ccc(C(N)=O)cn2c1C(=O)OC
i | -0.25 | C=CCn1c(=N)n(CC(O)COc2ccc(OC)cc2)c2ccccc21 (configuration not stated)
i | -1.22 | CN(C)N(Cc1ccccc1)C(=O)C(O)(c1ccccc1)c1ccccc1
-11.8* | 1.1* | CCN(CC)CCNC(=O)c1ccc(NC(=O)c2cn(-c3ccccc3)nc2-c2cccs2)cc1
i | -1.22 | CCOc1ccccc1C(=O)N1CCOCC1
i | -1.68 | O=C(Nc1nnc(C2CCCCC2)s1)C1CC(=O)N(c2ccc(F)cc2)C1 (configuration not stated)
i | 0.05 | COc1ccc(NC(=O)CN2CCN(c3ccc(C)cc3C)CC2)cc1
i | 0.99 | CCOCCCn1c(SCC(=O)NC(C)(C)C)nc2ccccc2c1=O
i | 0.57 | CC(C)Cn1c(N)c(C(=O)COC(=O)c2cc(-c3ccco3)nc3ccccc23)c(=O)n(C)c1=O
i | -0.86 | COc1ccc([C@@H]2[C@@H]3C(=O)N(C(C)(C)C)C(=O)[C@@H]3[C@]3(Cc4ccc(Cl)cc4)C(=O)N(c4ccc(C)cc4)C(=O)N23)cc1
i | -0.11 | CCOc1ccc(OCC)c(NC(=O)CN(c2ccc(OC)cc2)S(=O)(=O)c2c(C)noc2C)c1
i | 2.84 | Cc1ccc(C(=O)NC(=S)NNC(=O)c2ccc([N+](=O)[O-])cc2)cc1
i | 0.12 | COCc1nc2ccccc2n1Cc1ccccc1C
i | -0.92 | COc1ccccc1-n1c(-c2ccccc2)n[nH]c1=S
i | -1.02 | CCN(CCC(=O)Nc1ccc(Br)c(C)c1)Cc1ccccc1
i | -0.25 | Cc1c(Cl)cccc1NC(=O)Cn1c(CCC(=O)O)ccc1-c1ccc(Cl)cc1
i | -1.12 | O=C(Cc1cccc2ccccc12)Nc1ccc(-c2cc3ccccc3oc2=O)cc1
i | 0.38 | COc1ccc(SN=C2C(C)=CC(=O)C=C2C)cc1
i | 1.75 | Cc1nc2ccccc2cc1OCc1ccc(F)cc1
-6.21* | -1.61* | O=C(NCC(c1ccco1)N1CCc2ccccc2C1)C(=O)Nc1cc(F)ccc1F (configuration not stated)
i | -0.34 | Cc1ccc(-c2cc(C)nc3nc(N)nn23)cc1
i | 0.74 | Nc1n[nH]c(=S)n1-c1ccc(Cl)cc1
i | -1.24 | CC1CCN(C2(O)C(=O)Nc3ccc(Cl)cc32)CC1 (configuration not stated)
i | 1.33 | Cc1cc(C)n(-c2ccc(C(=O)Nc3nnc(C4CC4)s3)cc2)n1
i | -0.24 | COc1ccc(C(C(=O)NCC2CCCO2)N(C(=O)CNC(=O)c2cccs2)c2ccc(NC(C)=O)cc2)cc1OC (configuration not stated)
i | -0.12 | COc1ccc(-n2c(=O)[nH]cc(C(=O)Nc3ccc4c(c3)OCCO4)c2=O)cc1OC
i | 1.15 | O=S(=O)(NCc1cccnc1)c1cccs1
i | -0.32 | Cc1ccc2nc(SCC(=O)c3ccc4c(c3)NC(=O)CO4)[nH]c2c1

Grouped by structure: the entries above with a thiophene ring, fused or not
KCNQ2 block | KCNQ2 block baseline | smiles
-11.8* | 1.1* | CCN(CC)CCNC(=O)c1ccc(NC(=O)c2cn(-c3ccccc3)nc2-c2cccs2)cc1
i | -0.24 | COc1ccc(C(C(=O)NCC2CCCO2)N(C(=O)CNC(=O)c2cccs2)c2ccc(NC(C)=O)cc2)cc1OC (configuration not stated)
i | 1.15 | O=S(=O)(NCc1cccnc1)c1cccs1

More records:
KCNQ2 block | KCNQ2 block baseline | smiles
-5.6* | -0.16* | Nc1c(-c2ccccc2)c(CSc2nc3ccccc3[nH]2)nn1-c1cccc(Cl)c1
i | 0.09 | S=C(NCCc1ccccc1)N1CCN(C(c2ccccc2)c2ccccc2)CC1
i | 0.9 | Cc1c(C#N)c(N=CN(C)C)c(C(=O)c2ccccc2)n1-c1ccccc1
i | -0.92 | Cc1cccc(C(=O)Nc2ccc(C(=O)N/N=C/c3cccc(C)n3)cc2)c1
i | -0.2 | COc1cc(C)ccc1OCCOCCOc1ccc([N+](=O)[O-])cc1
i | 2.57 | O=C(NC(=S)NCC1CCCO1)C(c1ccccc1)c1ccccc1 (configuration not stated)
i | -0.15 | CCOC(=O)c1sc(N2C(=O)C(O)=C(C(=O)c3ccco3)C2c2ccc([N+](=O)[O-])cc2)nc1C (configuration not stated)
i | 1.79 | COc1ccc(S(=O)(=O)NCCc2ccccc2)cc1OC
i | 0.8 | O=S(=O)(NCC1(N2CCOCC2)CCCCC1)c1ccc(Cl)cc1C(F)(F)F
i | -3.8 | CCCCNC(=O)c1sc(=S)n2c1[nH]c(=O)c1ccc(C(=O)NCCc3ccc(OC)c(OC)c3)cc12
i | 2.13 | CCOC(=O)C1=C(CC)OC(N)=C(C#N)C1c1ccc(OC)c(OC)c1OC (configuration not stated)
i | 1.4 | Cc1cccc(/C=C/c2onc(C)c2[N+](=O)[O-])n1
i | 1.4 | CCC(=O)c1ccc(Oc2ccc(C(=O)c3ccc(C)cc3)cc2[N+](=O)[O-])cc1
-7.35* | -0.12* | Cc1cc(Nc2ccccc2)c2c([N+](=O)[O-])ccc(C)c2n1
i | 0.03 | O=Cc1cccn1-c1cccc([N+](=O)[O-])c1
i | -0.01 | CCC(NC(=O)NNC(=O)c1ccncc1)(C(F)(F)F)C(F)(F)F
i | -0.36 | Cc1nn(CC(=O)NNC(=S)NCC2CCCO2)c(C)c1Br (configuration not stated)
i | -1.47 | COC(=O)c1ccc(CNC(=O)c2ccc3oc(C(C)C)nc3c2)cc1
i | -0.49 | O=C(Cc1c(F)cccc1Cl)NC1=NCCS1
i | 0.99 | O=C(Nc1ccccc1)Nc1nc(-c2ccccc2)cs1
i | 0.06 | O=C(c1cccc(S(=O)(=O)NCc2ccccc2)c1)N1CCN(c2cccc(C(F)(F)F)c2)CC1
i | 0.23 | C=CCOc1nc2c(c(=O)n(C)c(=O)n2C)n1Cc1c(Cl)cccc1Cl
i | -0.62 | CSCc1ccc(C(=O)Nc2cc(C)cc(C)c2)cc1
i | 0.14 | CCOC(=O)c1c(-c2ccccc2)oc2ccc(OC(C)C(=O)O)cc12 (configuration not stated)
i | -0.14 | CCOc1ccccc1NC(=O)C1CCN(C(=O)NCc2ccccc2)CC1

Only part of the results is shown, so the mix of outcomes need not match the whole.
